High-throughput results deposited in PubChem BioAssay by several laboratories.
Mtb H37Rv: M. tuberculosis H37Rv growth inhibitors, H37Rv strain (AID 1626); M. tuberculosis H37Rv growth inhibition; higher % means a stronger effect; inhibition, % at 10 µM; hits with a dose series show IC50 in µM; 0.95% of 220,000 active;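 active = confirmed in a dose series; inconclusive = inhibition above 80% but not taken into the dose series; inactive = below 80% or under 30% at every dose of the series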;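 note: bacteria incubated seven days before Alamar blue readout; 0% = bacteria only wells and 100% = bacteria with antibiotic wells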
Arbovirus anti: blocks arbovirus infection; AID 1251; 0.37% of 200,000 active; arbovirus infection cell-based antiviral screen; inhibition, % at 10 µM;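 active = inhibition from about 30%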;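 note: bluetongue infection of BSR cells; cell survival read as ATP light after 72 h; 0% = infected wells without compound and 100% = uninfected wells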
YopH PTP inh: blocks Yersinia enterocolitica YopH tyrosine phosphatase | inhibition, %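 (about 10 µM by stock and volumes)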 | fluorescence Ex485/Em525 | AID 898 | 0.16% of 140,000 active;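 active = inhibition of 50% or more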;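 note: controls were vehicle for no effect and minimum signal wells for full effect; inactives centre near -20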
RecA intein inh: inhibitors of M. tuberculosis RecA intein splicing | 0.75% of 290,000 active | cell-free RecA intein splicing, fluorescence | inhibition, %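 (about 9 µM by stock and volumes)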 | AID 2221; in the data active = inhibition above about 30%; inconclusive = no clear call, values can overlap the other calls;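 note: 0% = vehicle wells and 100% = reference inhibitor control wells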
Target sequence (P9WHJ3 whole entry, looked up): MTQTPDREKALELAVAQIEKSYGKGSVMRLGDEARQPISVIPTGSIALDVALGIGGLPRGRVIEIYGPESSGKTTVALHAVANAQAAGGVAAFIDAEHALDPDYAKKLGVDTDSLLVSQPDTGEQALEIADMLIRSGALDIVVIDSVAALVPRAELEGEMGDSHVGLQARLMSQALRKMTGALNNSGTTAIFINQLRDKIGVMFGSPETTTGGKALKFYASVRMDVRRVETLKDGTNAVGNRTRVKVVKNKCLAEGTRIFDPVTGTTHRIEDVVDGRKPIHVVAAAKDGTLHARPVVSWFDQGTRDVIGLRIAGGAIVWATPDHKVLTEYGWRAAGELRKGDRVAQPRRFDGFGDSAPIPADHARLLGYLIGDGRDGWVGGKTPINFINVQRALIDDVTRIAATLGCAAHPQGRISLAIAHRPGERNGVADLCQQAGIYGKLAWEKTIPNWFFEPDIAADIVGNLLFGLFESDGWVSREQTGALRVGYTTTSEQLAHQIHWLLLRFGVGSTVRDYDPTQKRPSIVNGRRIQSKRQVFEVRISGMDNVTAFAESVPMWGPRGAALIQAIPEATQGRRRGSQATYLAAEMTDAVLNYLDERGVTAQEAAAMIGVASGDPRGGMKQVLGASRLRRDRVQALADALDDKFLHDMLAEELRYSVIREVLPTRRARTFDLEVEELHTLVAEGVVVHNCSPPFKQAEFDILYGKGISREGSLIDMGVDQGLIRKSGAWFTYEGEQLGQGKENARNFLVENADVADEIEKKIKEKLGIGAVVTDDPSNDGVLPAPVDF
Mtb bLac sens: beta-lactam sensitization of Mtb H37Rv | 0.27% of 330,000 active | M. tuberculosis H37Rv growth with meropenem, percent inhibition; hits of this screen are not shown here | inhibition, % at 25 µM | AID 434955;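 active = about 74% or more and at least 40 points above the plate without the antibiotic, then above 30% in a dose series; inconclusive = first-round hits that could not be retested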;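 note: growth measured after seven days incubation then overnight dye step; 0% = bacteria only wells and 100% = bacteria with antibiotic; twin plates without the antibiotic show which effects depend on it; some results filed as inactive read as strong as hits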
Arbovirus anti repeat: further read-out of Arbovirus anti, marked with its call; inhibition, %; measured here: 10K subset replicate screen; many hits read low in the repeat;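 first of two repeat runs on a subset; 0% = infected and 100% = uninfected wells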
Active calls of the source: *; ? = inconclusive; · = not tested or not shown.

SMILES	Mtb H37Rv	Arbovirus anti	YopH PTP inh	RecA intein inh	Mtb bLac sens	others
CC(=O)Nc1cc(C(=O)O)ccc1S(=O)(=O)c1ccc(C)cc1	-8%	1	-42	1.0	4
CC(=C1C(=O)c2ccccc2C1=O)N1CCC(C(N)=O)(N2CCCCC2)CC1	-3%	2	-1	0.8	2
CC(C)NC(=O)CC(=O)N/N=C/c1ccc(Br)cc1	-7%	0	-1	0.9	-4
CN1CCC(N(C)CC(=O)Nc2ccccc2N2CCOCC2)CC1	14%	21	-7	-1.1	-6
Cc1c2c(nc3c(C(=O)NC4CCCC4)cnn13)CCCC2	18%	-3	5	-4.2	·
CN(Cc1ccco1)S(=O)(=O)c1ccc(CN2C(=O)c3cccnc3C2=O)s1	·	·	·	-1.8	9
C/C(Cl)=C\Cn1c(Nc2cccc(C)c2)nc2c1c(=O)n(C)c(=O)n2C	5%	14	-45	2.5	0
CCOc1ccc(C2CC(c3ccccc3C)n3nc(N)nc3N2)cc1 (stereo unspecified)	5%	-2	-16	-3.4	?	Arbovirus anti repeat=5
c1ccc(-c2cn3nc(-c4ccccc4)sc3n2)cc1	·	·	·	1.4	24
COc1ccccc1N1CCN(C2=NS(=O)(=O)c3ccccc32)CC1	-9%	7	-5	-3.6	-1
COc1cccc(NC2c3ccccc3C(=O)N2Cc2ccco2)c1 (stereo unspecified)	7%	2	-5	2.2	3
CCC(C)NC(=O)c1ccccc1NC(=O)c1ccc(CSc2ccccc2)cc1 (stereo unspecified)	6%	4	-18	-3.6	7
CC(C)C(c1nnnn1C(C)(C)C)N1CCN(c2cccc(Cl)c2)CC1 (stereo unspecified)	7%	-7	-1	13	1
O=c1[nH]c(/C=C\c2ccccc2F)nc(O)c1[N+](=O)[O-]	·	·	·	-3.0	1
O=C1C(=C2SCCCS2)CC/C1=C\c1ccc(F)cc1	13%	-9	1	-0.4	-14
COC(=O)c1ccccc1NC(=O)C1CCCN(S(=O)(=O)c2ccc(F)cc2)C1 (stereo unspecified)	-8%	19	-15	-1.9	6
c1ccc(Sc2ncnc3ccccc23)cc1	5%	·	·	40*	1
CCOC(=O)NC(=S)Nc1ccc(C(C)(C)C)cc1Br	1%	·	·	4.1	3
NS(=O)(=O)c1ccc(NC(=O)COC(=O)/C(=C/c2cccs2)c2cccs2)cc1	5%	21	·	7.9	3
COc1cc2c(cc1OC)CN(CC(=O)Nc1ccc(F)cc1)C(C(=O)O)C2 (stereo unspecified)	·	·	·	-17	-6
Cc1cc(C)c(CN2CCC(n3nccc3NC(=O)c3ccccc3Cl)CC2)cc1C	·	·	·	-2.9	?
N#Cc1ccc(OCC(=O)NN2Cc3ccccc3C2=N)cc1	6%	7	·	-2.6	2
CCCCCCSc1cccc(-c2nc3cc(C)ccn3c2NC2CCCCC2)c1	·	·	·	8.9	74
Cc1ccsc1C(=O)Nc1cccc(-n2cnnn2)c1	·	·	·	1.9	1
O=C(CSc1nnnn1-c1ccc2c(c1)OCCO2)Nc1nc2c(s1)CCCC2	12%	1	-31	-1.1	-8
CC1(C)OC(c2ccccc2)=C/C(=C/C=C2C(=O)NC(=S)NC2=O)O1	-2%	10	·	-231	5
CN1C(=O)C2(N=c3ccccc3=N2)c2ccccc21	-12%	-13	-41	-0.9	17
O=C(COC(=O)CSCc1ccccc1)NCc1ccccc1	2%	0	·	-2.7	8
CCOC(=O)c1[nH]c(C)c(/C(O)=C2\C(=O)C(=O)N(CCCN3CCOCC3)C2c2cccnc2)c1C (stereo unspecified)	4%	0	-23	·	·
O=C(NCCSCc1ccco1)Nc1ccc(Cl)cc1	-1%	11	-22	·	7
COc1ccc(C(=O)C2CCCN(C(=O)c3c4c(nn3C)CCCC4)C2)cc1F (stereo unspecified)	1%	9	·	-1.0	8
Cc1cc(C(=O)CN2C(=O)NC3(CCCc4ccccc43)C2=O)c(C)n1Cc1ccccc1 (stereo unspecified)	4%	-4	-14	6.5	-2
CCC(C)n1[nH]c(=O)c2c(C)cc(C)nc21 (stereo unspecified)	3%	5	-100	-5.2	2
Nc1nc(-c2ccco2)nn1C(=O)CCc1ccccc1	3%	-2	-5	3.4	-2
Cc1c(-n2cc(C(=O)c3cc(Br)ccc3O)cc(C#N)c2=O)c(=O)n(-c2ccccc2)n1C	-3%	-1	-12	-0.6	-5
CSc1nc2ccccc2c(=O)n1C1CCOC(C)(C)C1 (stereo unspecified)	-4%	0	·	0.5	0
O=C1C(Cl)=C(N2CCOCC2)C(=O)N1c1cccc(Cl)c1	2%	12	-52	84*	98
CCn1c(C)nc2cc(C(=O)N/N=C/c3ccc(OC)c(O)c3)ccc21	-1%	1	-34	-1.0	1
Cc1cc(C)c2oc(C(=O)NCCc3ccc(S(N)(=O)=O)cc3)cc(=O)c2c1	-3%	·	·	·	1
Cc1ccc(-c2nc(NC(=O)CSc3ncn[nH]3)ns2)cc1	3%	·	·	-1.6	2
COc1cccc(NS(=O)(=O)c2cc3c4c(c2)CCC(=O)N4CCC3)c1	·	·	·	0.4	-12
COc1ccccc1CNC(=O)CN1C(=O)COc2ccc(S(=O)(=O)N3CCCCC3)cc21	·	·	·	3.6	1
CC(=O)Nc1ccc(OCC(O)Cn2nc(C)nc2C)cc1 (stereo unspecified)	-6%	3	-21	3.0	0
COc1ccc(NS(=O)(=O)c2cccc(C(=O)NCC(c3ccc(F)cc3)N3CCOCC3)c2)cc1 (stereo unspecified)	·	·	·	-2.8	-6
COC(=O)C[C@H]1c2cc(F)ccc2S(=O)(=O)N1C(C)C	-3%	·	·	0.2	0
Cc1cn(S(=O)(=O)c2cc(Br)ccc2Br)cn1	-8%	8	-30	0.1	0
COc1cccc(C2=NOC(C(=O)Nc3cccnc3Cl)C2)c1OC (stereo unspecified)	-5%	-1	·	·	3
Cc1cc(Nc2cccc([N+](=O)[O-])c2)c2ccccc2n1	0%	-5	·	1.0	0
Cc1ccc(OCCn2cccc2/C=C2/C(=O)NC(=O)N(Cc3ccco3)C2=O)cc1	4%	·	·	-0.6	-4
N#Cc1c(-c2cccs2)cc(-c2cccs2)[nH]c1=O	-5%	·	·	-101	3
COc1cc(-c2ccc3oc(-c4ccsc4)cc3c2)cc(OC)c1OC	-4%	·	·	1.2	-6
O=C(NCc1cccs1)C(=O)NCC(c1ccco1)N1CCN(c2ccccc2F)CC1 (stereo unspecified)	5%	-9	·	2.4	-10
Nc1nc(-c2cccnc2)nn1S(=O)(=O)c1ccccc1	1%	4	-5	2.8	6
COC(=O)c1cc(NC(=O)c2nccnc2C(=O)O)cc(C(=O)OC)c1	-2%	-1	-36	-1.3	0	Arbovirus anti repeat=7
O=C(c1ccc(-n2cncn2)c([N+](=O)[O-])c1)N1CCN(S(=O)(=O)c2cccc(F)c2)CC1	·	·	·	-3.7	-12
COc1ccc2oc(C(=O)NCc3cc(OC)c(OC)cc3OC)c(C)c2c1	·	·	·	2.3	7
CCC(C)(C)NC(=O)C(c1cccn1C)N(C(=O)Cn1nnc2ccccc21)c1ccccc1OC (stereo unspecified)	0%	13	-30	2.2	-6
O=C(Nc1ccc(N2CCCCC2)cc1)c1cccnc1	-1%	-2	-7	-0.1	9
Cc1ccc(OCC2Cn3c(nc4c3c(=O)[nH]c(=O)n4C)O2)cc1 (stereo unspecified)	-4%	-2	-24	-2.7	-15
COc1ccc(OC)c(/C=C/C(=O)N2C(=O)c3cccc(N)c3C2=O)c1	5%	-9	-2	-87	4
(further entries)
SMILES	Mtb H37Rv	Arbovirus anti	YopH PTP inh	RecA intein inh	Mtb bLac sens	others
CC(NC(=S)Nc1ccc(OC(F)F)cc1OC(F)F)C(C)(C)C (stereo unspecified)	7%	7	-9	2.2	1
COc1ccc(-c2cc(=O)oc3c(C)c(OCC(=O)N(C)C)ccc23)cc1	·	·	·	2.2	-4
CCNC(=O)NC(=O)C(C)On1nnc2ccc(S(=O)(=O)N(CC)CC)cc21 (stereo unspecified)	-2%	2	-15	-1.1	0
CC(=O)Nc1ccc(OCC(O)Cn2c(CO)nc3ccccc32)cc1 (stereo unspecified)	5%	0	·	-1.6	-1
O=C1CCN(Cc2ccc(Br)cc2)CCN1[C@H](CO)Cc1ccccc1	·	·	·	-3.9	-2
COc1ccc(C(=O)NCCc2cn3ccc(C)cc3n2)cc1	-3%	-3	-26	-5.1	23
CC1(C)CC(=O)C(C2c3ccccc3S(=O)(=O)c3ccccc32)C(=O)C1	-1%	-1	·	0.4	0
CCOC(=O)Cn1nc(C)c(NC(=O)CCc2ccc(OC)cc2)c1C	4%	1	·	-0.4	6
O=C(O)CC/C(=N/NC(=O)c1cccs1)c1ccccc1	7%	1	-35	-0.3	-1
CCn1cc(C(=O)OCC(=O)Nc2cc(S(=O)(=O)N(C)C)ccc2C)c(=O)c2ccc(C)nc21	-8%	-2	9	-1.2	-10
CCOc1ccc(/C(O)=C2/C(=O)C(=O)N(c3ccccn3)C2c2ccc(Cl)cc2)c(C)c1 (stereo unspecified)	·	·	·	-0.9	-2
COC(=O)c1cc(OC)c(OC)cc1NC(=O)c1ccco1	3%	-8	-27	0.7	66
COc1ccc(S(=O)(=O)Cc2ccc(C(=O)N3CCC(C(N)=O)CC3)o2)cc1	-6%	12	1	·	-1	Arbovirus anti repeat=1
COc1ccc(S(=O)(=O)N(C)c2ccccc2)c2cccnc12	·	·	·	0.8	2
Cc1ccc(S(=O)(=O)CCC(=O)c2ccc(O)cc2O)cc1	-2%	-47	-21	2.7	86
CCOc1c(CNCCNC(=O)c2nonc2N)cccc1OC	-4%	8	-32	2.0	3
Cc1ccc(NC(=O)Cc2ccc(Cl)c(Cl)c2)cc1S(=O)(=O)N(C)C	-1%	-23	-14	11	19
O=C(Cn1c2c(c(-c3ccccc3Cl)cc1=O)CCC2)N1CCC2(CC1)OCCO2	1%	10	-37	-1.3	-4
CCCCC(=O)Nc1nnc(S(=O)(=O)N(CC)c2ccc(OC)cc2)s1	·	·	·	-2.5	4
C(=C\c1nc2ccccc2[nH]1)/c1ccccc1	1%	-20	-6	2.3	-11
Cc1ccccc1NC(=O)C12CC3CCC1(C)C3(C)CO2 (stereo unspecified)	4%	-3	·	-2.3	-11
O=C1[C@@H]2C(c3ccc(F)cc3)=NO[C@@H]2C(=O)N1Cc1ccccc1	-4%	·	·	·	-7
CC1CCN(C(=O)CSc2nc3ccccc3c(=O)n2Cc2ccc3c(c2)OCO3)CC1	-2%	-2	-42	2.4	-2
Cc1ccc2oc(=O)c3cc(C(=O)N4CCN(C(=O)c5ccco5)CC4)sc3c2c1	·	6	·	-0.7	-4	Arbovirus anti repeat=-2
Cc1c(C(=O)N2CCCCC2)oc2ccc(S(=O)(=O)N3CC(C)CC(C)C3)cc12 (stereo unspecified)	-8%	2	-19	17	42
CCn1nnnc1SCC(=O)N1CCN(c2ccccc2)CC1	-4%	·	·	-0.2	-11
CCCOc1cccc(C2C(C(=O)c3cccs3)=C(O)C(=O)N2Cc2cccnc2)c1 (stereo unspecified)	-13%	·	·	-0.6	10
CC(C)[C@H](NC(=O)c1ccccc1)C(=O)OCC(=O)NCc1ccc(F)cc1	4%	4	·	1.8	2
O=C(Cc1ccccc1)Nc1ccc(NC(=O)c2cccc(Cl)c2)cc1	2%	-18	-28	1.0	-5
CCOc1ccccc1N1CCN(C(=O)CC(C)(C)C)CC1	5%	4	·	-3.3	2
N#CCSc1nc2cc(C(=O)N3CCC(C(N)=O)CC3)ccc2c2nc3ccccc3n12	-4%	2	-49	1.4	-6
CC(C)(C)NC(=O)COc1ccc(CNCc2cccnc2)cc1	-3%	-1	·	0.3	-8
COc1cc2[nH]c(=O)n(Cc3ccc(C(=O)NC4CCCC4)cc3)c(=O)c2cc1OC	-4%	-1	-7	-3.5	-2

Random excerpt: 5 records from the list
SMILES	Mtb H37Rv	Arbovirus anti	YopH PTP inh	RecA intein inh	Mtb bLac sens	others
CCCOc1cccc(C2C(C(=O)c3cccs3)=C(O)C(=O)N2Cc2cccnc2)c1 (stereo unspecified)	-13%	·	·	-0.6	10
CC(C)[C@H](NC(=O)c1ccccc1)C(=O)OCC(=O)NCc1ccc(F)cc1	4%	4	·	1.8	2
CC(C)(C)NC(=O)COc1ccc(CNCc2cccnc2)cc1	-3%	-1	·	0.3	-8
CCn1nnnc1SCC(=O)N1CCN(c2ccccc2)CC1	-4%	·	·	-0.2	-11
N#CCSc1nc2cc(C(=O)N3CCC(C(N)=O)CC3)ccc2c2nc3ccccc3n12	-4%	2	-49	1.4	-6

The list is partial (hit frequency here may not be typical).
